Compound activity (PubChem)
GIRK2 act – activators of human GIRK2 potassium channels; calls only for hits at 25 µM; P48051; HEK293-GIRK2 thallium flux, Thallos fluorescence; AID 1259325; 63,000 compounds, 0.05% hits;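 active = among the strongest 0.2% of first-round signals and kept after retests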;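 note: first round at about 10 µM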
Target sequence (P48051 whole entry, looked up): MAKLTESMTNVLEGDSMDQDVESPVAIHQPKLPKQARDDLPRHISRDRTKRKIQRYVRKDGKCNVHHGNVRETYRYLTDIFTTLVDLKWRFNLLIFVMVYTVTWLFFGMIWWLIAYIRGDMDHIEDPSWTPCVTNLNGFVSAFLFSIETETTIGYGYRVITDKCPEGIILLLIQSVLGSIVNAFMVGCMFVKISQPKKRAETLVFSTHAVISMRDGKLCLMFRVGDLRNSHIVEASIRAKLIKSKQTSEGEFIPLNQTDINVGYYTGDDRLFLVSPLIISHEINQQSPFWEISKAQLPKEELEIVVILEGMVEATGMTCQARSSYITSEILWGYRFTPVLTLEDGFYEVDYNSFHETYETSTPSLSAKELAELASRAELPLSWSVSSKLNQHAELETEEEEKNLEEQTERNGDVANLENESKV
Calls only; i = inactive.

SMILES	GIRK2 act
COc1cccc(COc2c[nH]c(C(=O)Nc3ccc(Cl)cc3)cc2=O)c1	i
O=C(NCC(F)(F)F)c1nnn(-c2ccc(NC(=O)C3CC=CCC3)cc2)n1 (centres undefined)	i
Cc1ccc(-c2csc3c(=O)n(CC(=O)Nc4ccc(Br)cc4F)cnc23)cc1	i
CCCOc1cccc2c1CCN(Cc1ccccc1C)C2=O	i
Cc1ccc(C)c(NC(=O)c2nc(-c3cn(Cc4ccc(F)cc4)nn3)no2)c1	i
CN1CN(CC(=O)O)CN(C)C1=S	i
O=C(Cn1cc(S(=O)(=O)c2ccccc2)c(=O)c2cc(Br)ccc21)Nc1ccccc1	i
NS(=O)(=O)c1ccc(CCNC(=O)c2csc3nc(-c4ccc(F)cc4)cn23)cc1	i
O=C(Cc1ccccc1)Nc1ccc(S(=O)(=O)N2CCN(c3cnccn3)CC2)cc1	i
COC(=O)c1cccc(N2C=C(C#N)S(=O)(=O)c3ccccc32)c1	i
Cc1cccc(Cl)c1NC(=O)Cn1ncc(SCC(=O)NC2CC2)c(Cl)c1=O	i
COc1ccc(-c2nnc(NC(=O)c3ccccc3OC)o2)cc1	i
COc1ccc(S(=O)(=O)Nc2ccc3c(c2)CCC(=O)N3)c(C)c1	i
COc1ccc2cccc(CCNC(C)=O)c2c1	i
CCOc1cc(NS(=O)(=O)c2ccc(OC)c(F)c2)ncn1	i
NC(=O)c1c(NC(=O)CCCS(=O)(=O)Cc2ccccc2)sc2c1CCCC2	i
Cn1cccc1CN(Cc1cccs1)C(=O)COc1cccc2c1OC(C)(C)C2	i
CC(C)(C)c1ccc(NC(=O)N(Cc2ccsc2)Cc2ccco2)cc1	i
O=C(CN1CCN(CC(O)c2ccco2)CC1)N1CCc2ccccc21 (centres undefined)	i
COc1ccc(-c2cc(N3CCN(C(=O)c4ccc(Br)o4)CC3)ncn2)cc1	i
CC(=O)Nc1ccc(Nc2nc3ccccc3nc2NS(=O)(=O)c2cccs2)cc1	i
O=C(Nc1nc(-c2ccccn2)cs1)NC1CCCC1	i
Cc1nc(C(=O)Nc2ccccc2F)cc(-n2cccn2)n1	i
Cc1ccc(C(=O)Cn2nc(-c3ccccc3)c3sc(N4CCOCC4)nc3c2=O)c(C)c1	i
Cc1ccc(C)c(NC(=O)c2nnn(Cc3nc(-c4ccccc4C)oc3C)c2C)c1	i
CC1=C(c2nc(-c3ccccc3)no2)C(c2cccc(F)c2)NC(=O)N1 (centres undefined)	i
CCCCC(C)(C)[C@H](O)/C=C/[C@H]1[C@H](O)CC(=O)[C@@H]1CC(=O)CCCCC(=O)O	i
Cc1cc(NC(=O)CN2CCc3nc(NC(=O)C4CC4)sc3C2)no1	i
CN/N=C1/CCC2C3CCc4cc(O)ccc4C3CCC12C (centres undefined)	i
COCCc1nnc(NC(=O)/C=C/c2ccccc2)o1	i
CC(=O)c1cccc(NC(=O)CSC2=NNC3C4CC(c5ccc(F)cc5)NN4C=CN23)c1 (centres undefined)	i
CC1Cc2ccccc2N1S(=O)(=O)C1CC1 (centres undefined)	i
CCCOC(=O)c1ccc(Oc2coc3cc(OC(=O)C4CC4)ccc3c2=O)cc1	i
Cc1nn(C2CCS(=O)(=O)C2)c(C)c1N1CCN(C(=O)/C=C/c2ccco2)CC1 (centres undefined)	i
CN=C(N)NCCC[C@H](N)C(=O)O	i
CCN1CCc2c(sc(NC(=O)C3CCCCC3)c2-c2nc3ccccc3s2)C1	i
Cc1ccc(-n2cc(C(=O)N3CCC(NC(=O)C4CC4)CC3)nn2)cc1	i
O=C(c1nc2ccccc2s1)N1CC(c2nc(-c3ccc[nH]c3=O)no2)C1	i
CCOc1nn(CC)cc1C(=O)Nc1nnc(SCC(=O)Nc2ccccc2F)s1	i
COc1ccc(-n2c(C)cn3c4c(=O)n(Cc5ccccc5)c(=O)n(C)c4nc23)c(OC)c1	i
COC(=O)c1ccccc1C(=O)N1CCC(CSC2=NCCS2)CC1	i
CCN(CC)CC(O)COc1ccc2ccccc2c1 (centres undefined)	i
COc1ccc(CCNC(=O)c2cnn3c(-c4ccncc4)ccnc23)cc1OC	i
COc1cccc(C(=O)Nc2ccc3c(c2)CCCN3C(=O)C(C)C)c1OC	i
CCOCC(=O)N1CCOC2(CCOCC2)C1	i
O=C(NCc1ccccn1)c1csc(Nc2ccc(OC(F)F)cc2)n1	i
CCc1ccc(OC)c(S(=O)(=O)Nc2ccc3c(c2)CCCN3S(=O)(=O)CC)c1	i
Cc1[nH]nc(-c2ccc(OCCN3CC(C)OC(C)C3)cc2O)c1-c1ccccc1 (centres undefined)	i
COCCCn1c(-c2ccc(C(C)(C)C)cc2)nc2oc3ccccc3c(=O)c2c1=O	i
O=C(NCCCn1cccc1)c1ccsc1	i
COc1cccc2cc(C(=O)NCC3(OC)CCSC3)oc12 (centres undefined)	i
CCCCC[C@H](O)/C=C/[C@H]1[C@H](O)CC(=O)[C@@H]1CCCCCCC(=O)O	i
Cc1nc(-c2ccccc2)sc1C(=O)Nc1c(C)nc2sc(C)c(C)n2c1=O	i
Cc1ccc(Nc2ccc(NS(=O)(=O)c3ccccc3Cl)cc2)nn1	i
CC1CCCN(c2nc3c(c(=O)[nH]c(=O)n3C)n2CC(O)COc2ccc(Cl)cc2)C1 (centres undefined)	i
O=C(CC1CCCC1)NCC(O)c1ccoc1 (centres undefined)	i
Cc1cc(C)n(-c2ncc(NC(=O)Cc3ccc(Cl)cc3)cn2)n1	i
O=C(NC1CCN(C(=O)c2cc(-c3ccc(F)cc3)n[nH]2)CC1)c1ccc(Cl)cc1	i
NC(=O)c1ccccc1OCC#CCNC(=O)C1CC(=O)N(c2ccc(F)cc2)C1 (centres undefined)	i
CCn1c(=O)c2c(cc(C)n2C)n(CC(=O)Nc2ccc(OC)cc2OC)c1=O	i

Reprinted from the entries so far (18 entries):
SMILES	GIRK2 act
COc1ccc(CCNC(=O)c2cnn3c(-c4ccncc4)ccnc23)cc1OC	i
COc1cccc(C(=O)Nc2ccc3c(c2)CCCN3C(=O)C(C)C)c1OC	i
CCOCC(=O)N1CCOC2(CCOCC2)C1	i
O=C(NCc1ccccn1)c1csc(Nc2ccc(OC(F)F)cc2)n1	i
CCc1ccc(OC)c(S(=O)(=O)Nc2ccc3c(c2)CCCN3S(=O)(=O)CC)c1	i
Cc1[nH]nc(-c2ccc(OCCN3CC(C)OC(C)C3)cc2O)c1-c1ccccc1 (centres undefined)	i
COCCCn1c(-c2ccc(C(C)(C)C)cc2)nc2oc3ccccc3c(=O)c2c1=O	i
O=C(NCCCn1cccc1)c1ccsc1	i
COc1cccc2cc(C(=O)NCC3(OC)CCSC3)oc12 (centres undefined)	i
CCCCC[C@H](O)/C=C/[C@H]1[C@H](O)CC(=O)[C@@H]1CCCCCCC(=O)O	i
Cc1nc(-c2ccccc2)sc1C(=O)Nc1c(C)nc2sc(C)c(C)n2c1=O	i
Cc1ccc(Nc2ccc(NS(=O)(=O)c3ccccc3Cl)cc2)nn1	i
CC1CCCN(c2nc3c(c(=O)[nH]c(=O)n3C)n2CC(O)COc2ccc(Cl)cc2)C1 (centres undefined)	i
O=C(CC1CCCC1)NCC(O)c1ccoc1 (centres undefined)	i
Cc1cc(C)n(-c2ncc(NC(=O)Cc3ccc(Cl)cc3)cn2)n1	i
O=C(NC1CCN(C(=O)c2cc(-c3ccc(F)cc3)n[nH]2)CC1)c1ccc(Cl)cc1	i
NC(=O)c1ccccc1OCC#CCNC(=O)C1CC(=O)N(c2ccc(F)cc2)C1 (centres undefined)	i
CCn1c(=O)c2c(cc(C)n2C)n(CC(=O)Nc2ccc(OC)cc2OC)c1=O	i

The list goes on.
SMILES	GIRK2 act
O=C(Nc1ccc(S(=O)(=O)c2ccccc2)cc1)c1cccc(S(=O)(=O)N2CCCC2)c1	i
CCc1ccc(C2NC(=O)N(CC(=O)Nc3cc(F)ccc3C)C3=C2C(=O)OC3)cc1 (centres undefined)	i
COc1ccc(C)cc1S(=O)(=O)Nc1ccc2c(c1)CCCN2S(=O)(=O)c1ccccc1	i
COCCN1C(=O)C2C(c3ccccc3O)NN(C)C2C1=O (centres undefined)	i
CCN(c1ccsc1C(=O)NCc1ccccc1Cl)S(=O)(=O)c1ccccc1	i
Cc1ccccc1NC(=O)NCCCN1CCN(c2ccccc2)CC1	i
COc1ccc(S(=O)(=O)N2CCCC(c3nnc(C)s3)C2)cc1 (centres undefined)	i
CCOc1ccc(N(C)S(=O)(=O)c2ccsc2C(=O)NC2CCCCCC2)cc1	i
COc1ccc(NC(=O)Cn2c(C)nc3c(sc4ccccc43)c2=O)c(OC)c1	i
CCC(C(=O)NCC1(CO)CC1)c1ccccc1 (centres undefined)	i
O=C(c1ccc(Cl)s1)N1CCC(CSCc2ccco2)CC1	i
O=C(CSc1nnc(-c2cccc(S(=O)(=O)N3CCCCCC3)c2)o1)c1ccc(Cl)cc1	i
COc1cc(OC)cc(N(C)S(=O)(=O)c2ccsc2-c2nc(-c3cccc(C)c3)no2)c1	i
O=C(CSc1ncccn1)NCC1CCC(c2nc3ccccc3[nH]2)CC1 (centres undefined)	i
CC(Oc1ccccc1)C(=O)N1CCC(Oc2ccc(C(F)(F)F)cn2)CC1 (centres undefined)	i
COc1ccc(Cl)cc1C(=O)Nc1cc(-c2cccs2)nn1-c1nc(C(C)C)cc(=O)[nH]1	i
Cc1ccc(Cn2c(=O)c3c(nc(N=Cc4ccccc4O)n3C)n(C)c2=O)cc1	i
O=C(Nc1ccc2c(c1)CCCN2C(=O)c1cccs1)NC(c1ccccc1)c1ccccc1	i
COc1ccc(N2Cc3cccc(OC)c3OC(C)C2=O)cc1Cl (centres undefined)	i
O=C(Nc1ccccc1)OC1CCCC(NC(=O)c2ccco2)C1 (centres undefined)	i
COC(=O)N1CCN(CCNC(=O)Nc2ccc(F)cc2)CC1	i
COc1ccc(NC(=O)Cn2cc(-c3nc(-c4ccc(C)cc4)no3)ccc2=O)cc1OC	i
COC(=O)c1ccc(-n2nnc(-c3nc(-c4ccc(Cl)cc4)no3)c2C)cc1	i
COc1ccc(-c2nc(Cn3nnc(C(=O)Nc4ccc5c(c4)OCCO5)c3N)c(C)o2)cc1OC	i
O=C(CCc1csc(NC(=O)Nc2ccccc2)n1)Nc1ccc2c(c1)OCO2	i
O=S(=O)(NCCc1ccccc1)c1cccc2nsnc12	i
O=C(NCCc1ccncc1)c1ccc2nsnc2c1	i
Cn1c(C(C#N)=C(O)c2cc[n+](CC(=O)c3ccccc3)cc2)nc2ccccc21	i
COc1cccc(NC(=O)c2coc(NC(=O)c3ccsc3)n2)c1	i
CCc1cccc(NC(=O)Cn2nc3ccc(SC(C)(C)C)nn3c2=O)c1	i
COc1ccc(-c2coc3cc(OC(=O)c4ccc([N+](=O)[O-])cc4)ccc3c2=O)cc1	i
Cn1c(=O)c2c(nc(N3CCCCC3)n2CCCOc2ccccc2)n(C)c1=O	i
COC(=O)N(Cc1ccoc1)Cc1cccs1	i
O=C(c1cc(F)ccc1O)C1CCNCC1	i
COc1cccc2sc(N(C)CC(=O)Nc3cccc(Cl)c3C)nc12	i
Cn1c(=O)c2sccc2n2c(CCCC(=O)N3CCN(c4ccc(F)cc4)CC3)nnc12	i
CC1CN(CC(O)COc2ccc(Br)cc2Br)CC(C)O1 (centres undefined)	i
CC(C)c1ccc(NC(=O)C(=O)NCC2CCN(Cc3ccccc3)CC2)cc1	i
COc1cccc(C(=O)Nc2cc(C)nn2-c2nc3c(cnn3-c3ccccc3)c(=O)[nH]2)c1OC	i
O=S(=O)(NCC1(c2ccccc2)CCOCC1)c1ccc2c(c1)CCCC2	i
Cn1c(CN2CCN(C(=O)c3ccc(C(C)(C)C)cc3)CC2)nc2ccccc21	i
COc1nn(C)cc1C(=O)NCC(=O)Nc1nc2ccccc2s1	i
Cc1cc(C)c2sc(NC(=O)c3ccc([N+](=O)[O-])o3)nc2n1	i
COc1ccc(Nc2nc3nnc(C)c(=O)n3[nH]2)cc1	i
O=C(Oc1ccccc1)N1CCC(CNC(=O)C2(c3cccs3)CCCC2)CC1	i
O=C(CCc1csc(NC(=O)Nc2cccc(Cl)c2)n1)Nc1nccs1	i
O=C(NCc1ccccc1)c1ccc(S(=O)(=O)N2CCc3ccccc3C2)cc1	i
Cn1c(CN2CCN(CC(=O)Nc3ccc(C(F)(F)F)cc3)CC2)nc2ccccc21	i
CC(=O)N1CCc2c(sc(NC(=O)CCc3ccccc3)c2-c2nc3ccccc3s2)C1	i
CC1CCN(S(=O)(=O)c2cccn(CC(=O)NCCc3ccccc3)c2=O)CC1	i
CC1C2=CC(=O)OC2(O)CC2C1C(O)CC1C(C)(CO)CCCC21C (centres undefined)	i
O=C(c1cc(OCc2ccccc2)no1)N1CCN(Cc2ccc3c(c2)OCO3)CC1	i
NC(=O)c1ccsc1NC(=O)CCS(=O)(=O)Cc1ccccc1	i
CN(C)c1cccc(C(=O)N2CC(c3nc(-c4cccs4)no3)C2)c1	i
CN(c1ccc2c(c1)OCCO2)S(=O)(=O)c1ccsc1-c1nc(-c2ccccc2)no1	i
COc1ccc(-n2ccn(CC(=O)Nc3ccc(OC)c(OC)c3)c(=O)c2=O)cc1	i
CCCCOc1ccccc1-c1cc2c(=O)n(Cc3nc(-c4ccc(Cl)cc4)no3)ccn2n1	i
O=C(c1cnn(-c2ccccc2)n1)N1CCN(C(=O)C2CC2c2ccc(F)cc2)CC1 (centres undefined)	i
O=C(Cn1nc(C(=O)N2CCOCC2)cc1-c1cccs1)NCc1cccs1	i
COC(=O)c1ccc(S(=O)(=O)NCCc2csc(-c3ccc(F)cc3)n2)cc1	i
The results go on:
SMILES	GIRK2 act
COc1ccccc1CN1COc2ccc3c(c2C1)O/C(=C\c1cc(OC)c(OC)c(OC)c1)C3=O	i
CC(C)N(C(=O)C(=O)c1cn(CC(=O)N2CCOCC2)c2ccccc12)C(C)C	i
CCOc1ccc(S(=O)(=O)NCCn2nc(-c3ccc(OC)cc3)ccc2=O)c(OCC)c1	i
O=C1COc2cc(Cl)ccc2N1Cc1nc(-c2ccc(OCc3ccccc3)cc2)no1	i
Cc1c(C)n2c3c(=O)[nH]c(=O)n(C)c3nc2n1CCN1CCN(C)CC1	i
Cc1noc(-c2ccc(NC(=O)Cn3cnc4ccccc4c3=O)cc2)n1	i
Cc1ccc(N2CC(C(=O)N3CCC(CSc4nccn4C)CC3)CC2=O)cc1C (centres undefined)	i
COc1ccc(OC)c(NC(=O)Cn2nc(SC)c(-c3nc(-c4cccc(C)c4)no3)c2N)c1	i
CC(C)(C)c1ccc(C(=O)N2CCN(c3nnc(SCC(=O)NCc4ccco4)s3)CC2)cc1	i

Some of the compounds tested; the hit share may differ from the screen's.
